Assay outcomes: PubChem BioAssay, several laboratories
VCAM-1 up imaging: enhancers of VCAM-1 display on endothelial cells, imaging, high-content imaging, pooled HUVEC, TNFa stimulus (AID 457) | Pooled HUVEC, TNFa-induced VCAM-1 immunofluorescence imaging; hits of this screen are not shown here | calls only | 10,000 compounds, 0.2% hits;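 active means a top-ranked rise in VCAM-1 staining upheld on image or statistical review; inactive means the rest, including candidates rejected on review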;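 further: compounds tested at 5 µM in the well; cells exposed to compound for 24 hours before fixing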
VCAM-1 down: inhibitors of TNFa-induced VCAM-1 surface display, cell-based, plate reader, pooled HUVEC, TNFa stimulus (AID 454); HUVEC TNFa-induced VCAM-1 surface immunofluorescence, plate reader; numbers were filed only for top-ranked candidate wells; inhibition, % at 5 µM; 10,000 compounds, 0.2% hits;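 active means compound among top-ranked inhibitors of TNF-induced VCAM-1 adhesion protein staining, with the hit upheld by image or statistical review; inactive means the rest, including hits rejected on review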;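 further: 0% = TNFa with vehicle and 100% = cells without TNFa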
VCAM-1 imaging: inhibitors of TNFa-induced VCAM-1 surface display, imaging, high-content imaging, pooled HUVEC, TNFa stimulus (AID 456); HUVEC TNFa-induced VCAM-1 surface expression, immunofluorescence imaging; numbers were filed only for top-ranked candidate wells; inhibition, % at 5 µM, or IC50 in µM where a hit was titrated; 10,000 compounds, 0.2% hits;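 active means top tenth filtered wells with inhibition above zero that passed visual or statistical confirmation; inactive means the rest, including hits rejected on review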;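 further: 0% = stimulated vehicle wells and 100% = unstimulated cells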
FPRL1 binder: human FPRL1 ligands by binding competition, primary screen, cell-based, FPR counter-screen, flow cytometry. N-formyl peptide receptor 2 (Homo sapiens), P25090. FPRL1-expressing cells, fluorescent ligand binding inhibition. inhibition, %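 (tested at 6.7 µM)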. 24,000 compounds, 0.3% hits. AID 441, 2006;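 further: 0% = buffer alone and 100% = receptor blocker peptide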
Target sequence (P25090 whole entry, looked up): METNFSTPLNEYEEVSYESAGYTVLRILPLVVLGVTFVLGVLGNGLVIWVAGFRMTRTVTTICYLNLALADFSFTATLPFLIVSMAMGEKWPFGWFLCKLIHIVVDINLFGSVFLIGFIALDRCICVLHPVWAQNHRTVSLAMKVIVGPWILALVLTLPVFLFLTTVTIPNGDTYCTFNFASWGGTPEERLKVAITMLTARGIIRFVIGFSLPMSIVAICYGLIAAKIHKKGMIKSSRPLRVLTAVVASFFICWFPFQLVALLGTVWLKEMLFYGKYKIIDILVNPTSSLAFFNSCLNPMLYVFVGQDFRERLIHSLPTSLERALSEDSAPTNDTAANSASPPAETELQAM
FPR binder: human FPR ligands by binding competition, primary screen, cell-based, FPRL1 counter-screen, flow cytometry; FPR-expressing cells, fluorescent ligand binding; inhibition, %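 (tested at 6.7 µM)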; 24,000 compounds, 0.74% hits; AID 440, 2006;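 further: 0% = buffer wells and 100% = receptor blocker peptide wells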
Target sequence (P21462 whole entry, looked up): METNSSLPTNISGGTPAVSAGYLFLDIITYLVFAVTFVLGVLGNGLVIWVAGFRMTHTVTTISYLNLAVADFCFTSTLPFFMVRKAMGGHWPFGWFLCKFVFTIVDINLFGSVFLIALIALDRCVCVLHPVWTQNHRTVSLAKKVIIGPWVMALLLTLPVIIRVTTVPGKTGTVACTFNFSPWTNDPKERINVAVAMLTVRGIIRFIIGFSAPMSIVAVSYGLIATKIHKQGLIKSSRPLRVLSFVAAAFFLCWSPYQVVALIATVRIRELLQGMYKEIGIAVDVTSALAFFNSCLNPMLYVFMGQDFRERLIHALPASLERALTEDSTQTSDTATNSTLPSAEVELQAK
The depositor's hits bear a star; i = inactive; . = no result given.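 How the source made its calls, unless noted: active means mean above 30%; inconclusive means self-fluorescent; inactive means the rest.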 A portion of the library, so the mix of outcomes need not match the whole.

entry	smiles	VCAM-1 up imaging	VCAM-1 down	VCAM-1 imaging	FPRL1 binder	FPR binder
1	Cc1onc(-c2ccccc2)c1C(=O)N[C@@H]1C(=O)N2[C@@H]1SC(C)(C)[C@@H]2C(=O)O	i	i	i	-1.6	9.6
2	COCCCN(C(=O)Nc1ccc(C)c(C)c1)C(C)c1ccccn1 (configuration not stated)	.	.	.	-4.9	3.4
3	CC1(C)CNC(=O)CC(C)(C)N1O	i	i	i	7.7	1.0
4	O=C(Nc1ccc(S(=O)(=O)NC2CCCC2)cc1)c1cnccn1	i	i	i	-3.4	2.8
5	Nc1nc2n(n1)C(c1ccccc1)CC(c1ccc(F)cc1)N2 (configuration not stated)	.	.	.	3.3	-0.6
6	Cc1cccc(OCC(=O)NCc2ccncc2)c1C	.	.	.	-1.3	1.1
7	COc1ccc(C(=O)NCc2nnc(SCC(=O)NCc3ccc(F)cc3)o2)cc1	.	.	.	6.0	1.0
8	COc1ccc(C(=O)Nc2ccc(C)cn2)c(OC)c1	i	i	i	-0.7	2.7
9	CN1CCN(CCCNC(=O)CCCOc2cc(=O)n(C)c3ccccc23)CC1	.	.	.	-2.5	0.0
10	CC(NC(=O)C(C)(C)C)c1nc2ccccc2n1C (configuration not stated)	.	.	.	-3.5	1.9
11	COc1ccc(CCNC(=O)c2ccc(CNc3c(N4CCOCC4)c(=O)c3=O)cc2)cc1OC	.	.	.	-3.0	-1.6
12	C[C@@H]1CCC[C@H](C)N1NC(=O)c1ccc(Cl)c(S(N)(=O)=O)c1	i	i	i	0.9	0.4
13	Cc1cccc(OCC(=O)N2CCN(C(=O)Cc3ccccc3)CC2)c1	i	i	i	2.0	-7.3
14	CC(C)C(O)P(=O)(OCc1ccccc1)c1ccc(N(C)C)cc1 (configuration not stated)	.	.	.	0.2	-0.6
15	CCN(CC)CCCNC(=O)c1cc(-c2ccc(Cl)cc2)on1	.	.	.	-1.8	-4.9
16	CCOC(=O)N1CCN(S(=O)(=O)c2cccc3nonc23)CC1	.	.	.	-5.2	-11.2
17	CC(=O)Nc1ccc(-c2cn3cccnc3n2)cc1	.	.	.	2.3	-3.6
18	Cc1nc2ncnn2c(C)c1CCC(=O)N1CCc2ccccc2C1	.	.	.	-3.6	-6.4
19	COc1ccc(CCNC(=O)CSc2nncn2N)cc1OC	i	i	i	2.0	5.6
20	COc1ccc(C(C)NC(=O)c2ccoc2C)cc1OC (configuration not stated)	i	i	i	-4.0	1.7
21	Cc1nc2ncnn2c(C)c1CCC(=O)NC(C)c1ccc2c(c1)OCCO2 (configuration not stated)	.	.	.	4.0	0.8
22	CCOC(=O)CSC1=C(C#N)C(c2sccc2C)CC(=O)N1 (configuration not stated)	.	.	.	10.3	-11.0
23	CCCCn1c(SCC(=O)N2CCN(c3ccccc3)CC2)nc2ccsc2c1=O	.	.	.	3.7	-3.8
24	O=C(CN1CCOc2ccccc21)NC1CC1	.	.	.	0.3	-5.3

Single values from the entries so far:
CN1CCN(CCCNC(=O)CCCOc2cc(=O)n(C)c3ccccc23)CC1 @ FPR binder: 0.0
CCCCn1c(SCC(=O)N2CCN(c3ccccc3)CC2)nc2ccsc2c1=O @ FPRL1 binder: 3.7
CCOC(=O)CSC1=C(C#N)C(c2sccc2C)CC(=O)N1 (configuration not stated) @ FPR binder: -11.0
CCOC(=O)N1CCN(S(=O)(=O)c2cccc3nonc23)CC1 @ FPR binder: -11.2

(continued)
entry	smiles	VCAM-1 up imaging	VCAM-1 down	VCAM-1 imaging	FPRL1 binder	FPR binder
25	O=C(O)c1cc(S(=O)(=O)N2CCCCC2)ccc1F	.	.	.	4.2	-1.8
26	O=C(c1cc(-c2ccco2)on1)N1CCc2ccccc2C1	.	.	.	-1.8	7.7
27	CCOc1ccc(NC(=O)CCN2CCN(c3ccccc3OC)CC2)cc1	.	.	.	0.3	-6.8
28	CCn1cc(C(=O)NCCCN2CC(C)CC(C)C2)c(=O)c2cc(S(=O)(=O)N(C)C)ccc21 (configuration not stated)	.	.	.	5.1	-2.2
29	CCCOc1ccccc1C1CC(=O)Nc2cc3c(cc21)OCCO3 (configuration not stated)	i	i	i	-3.4	0.4
30	CCOC(=O)N1CCN(CC(O)c2ccc3cc[nH]c3c2)CC1 (configuration not stated)	.	.	.	4.7	-9.4
31	CCCN1Cc2cccc(C(=O)Nc3ccc4c(c3)OCCO4)c2C1=O	.	.	.	-4.2	0.3
32	CC(NC(=O)CC1Nc2ccccc2NC1=O)c1ccccc1 (configuration not stated)	.	.	.	-3.3	-5.8
33	COCCn1c(CN2CCN(c3ccccc3F)CC2)nc2c1c(=O)n(C)c(=O)n2C	i	i	i	9.0	-4.6
34	Cc1nc2sc(C(c3cccs3)N3CCC(C(N)=O)CC3)c(O)n2n1 (configuration not stated)	i	i	i	6.5	14.7
35	CCOC(=O)Cn1c(=O)oc2cc(S(=O)(=O)NCCc3ccc(OCC)c(OCC)c3)ccc21	.	.	.	-5.1	-8.4
36	COc1ccc(C(=O)Nc2ccc(S(=O)(=O)Nc3onc(C)c3C)cc2)cc1	i	i	i	1.4	11.6
37	Cc1ccc(CCN2CC(C(=O)NCc3cccnc3)CC2=O)cc1 (configuration not stated)	.	.	.	-1.4	0.3
38	COc1ccc(N2CCN(C(=O)CN=C3NS(=O)(=O)C(c4ccc(C)cc4)=C3C)CC2)cc1	.	.	.	-16.3	2.2
39	CC(C(=O)N1c2ccc(F)cc2CCC1C)N1C(=O)c2ccccc2C1=O (configuration not stated)	i	i	i	-0.2	-2.8
40	O=C(CCNS(=O)(=O)c1cccs1)N1CCCCCC1	.	.	.	0.7	-4.5
41	Cc1cc(C)n(-c2nc3ccccc3nc2Nc2ccc3c(c2)OCO3)n1	.	.	.	-4.3	-8.6
42	CC(C)OC(=O)CSc1nnnn1-c1ccc2c(c1)OCCO2	i	i	i	-3.2	-5.2
43	O/N=C1\CCCCc2ccccc21	.	.	.	-6.4	5.1
44	CCCn1c(N2CCN(CC(=O)NCc3cccs3)CC2)nc2ccccc21	i	i	i	-1.4	2.1
45	Cc1ccc(-c2nc3s/c(=C\c4ccco4)c(=O)n3n2)cc1	.	.	.	4.8	4.5
46	COc1ccc(NC(=O)CN2CCCCC2)cc1	i	i	i	5.0	-2.6
47	CC1CCCCN1CCNC(=O)Cn1nc(-c2ccccc2)ccc1=O (configuration not stated)	.	.	.	-2.0	4.9
48	Cc1nonc1NC(=O)OCCN1CCOC1=O	.	.	.	16.9	-5.5

An excerpt from above, reduced to FPR binder.
nr	SMILES	FPR binder
30	CCOC(=O)N1CCN(CC(O)c2ccc3cc[nH]c3c2)CC1 (configuration not stated)	-9.4
36	COc1ccc(C(=O)Nc2ccc(S(=O)(=O)Nc3onc(C)c3C)cc2)cc1	11.6

(list continues)
entry	smiles	VCAM-1 up imaging	VCAM-1 down	VCAM-1 imaging	FPRL1 binder	FPR binder
49	CCC(=O)N1CCc2cc(S(=O)(=O)N(CC)c3cccc(C)c3)ccc21	.	.	.	2.0	1.1
50	CCSc1nc2c(c(=O)[nH]1)C(c1ccccn1)C1=C(CC(C)(C)CC1=O)N2 (configuration not stated)	.	.	.	2.0	11.0
51	CCc1ccc(NC(=O)C2CC(=O)N(C(C)C)C2)cc1 (configuration not stated)	i	i	i	10.6	13.8
52	COP(C)(=O)c1c(C)nn(-c2ccccc2)c1C (configuration not stated)	i	i	i	0.0	4.1
53	COC(=O)Cn1c2ccccc2c2nc(C)sc21	i	i	i	-4.4	-2.2
54	O=C(NC1c2ccccc2-c2ccccc21)c1ccco1	.	.	.	-3.5	0.9
55	Cn1c(=O)cc(NCCc2ccccc2)[nH]c1=O	i	i	i	1.7	-19.4
56	COc1ccc(C2=NOC(C(=O)NCCCN3CCOCC3)C2)cc1 (configuration not stated)	i	i	i	5.8	1.8
57	COc1ccc(OC)c(NC(=O)CN2C(=O)C3(OCCCO3)c3ccccc32)c1	.	.	.	-4.2	-0.3
58	COc1ccc(-c2ccc(-c3noc(-c4cccs4)n3)c(OC)n2)cc1	i	i	i	-5.2	-6.6
59	CCOc1ccc(/C(O)=C2/C(=O)C(=O)N(CCOCCO)C2c2ccccn2)cc1 (configuration not stated)	.	.	.	-2.5	-2.2
60	O=C(Cn1c(=O)[nH]c2ccsc2c1=O)NC1CCCCCC1	i	i	i	-3.8	-0.4
61	COc1cc(C2CC(=O)N3CN(Cc4ccco4)CSC3=C2C#N)ccc1OCc1ccccc1 (configuration not stated)	.	.	.	0.6	3.9
62	O=S(=O)(NCc1csc(-c2cccnc2)n1)c1ccc2c(c1)OCCO2	.	.	.	3.3	0.1
63	CN1C(=O)c2oc3ccccc3c(=O)c2C1c1ccccn1 (configuration not stated)	i	i	i	-0.2	0.7
64	Fc1ccc(Br)cc1C1C=C(c2cccnc2)Nc2ncnn21 (configuration not stated)	.	.	.	2.4	2.4
65	O=C(CN(Cc1cccs1)C(=O)CNS(=O)(=O)c1ccccc1)NCc1ccco1	i	i	i	3.3	-0.6
66	CCn1ccc(C(=O)Nc2ccc(N(C)C(C)=O)cc2)n1	.	.	.	-2.4	-9.3
67	Cc1ccc(-c2noc(CN3C(C)CCCC3C)n2)cc1 (configuration not stated)	i	i	i	-0.9	-1.6
68	Cc1ccc(CNS(=O)(=O)c2ccc3oc(C(=O)O)c(C)c3c2)cc1	.	.	.	-0.6	0.3
69	Cc1cc(C)c2c(n1)nn1c(N3CCOCC3)cc(C)nc21	i	i	i	-1.1	-2.1
70	CCn1c(C(=O)NC(C)c2ccc3c(c2)OCCO3)cc2sccc21 (configuration not stated)	.	.	.	-4.9	-9.3
71	Cc1cc(=O)oc(C)c1C(=O)O	i	i	i	-6.0	-0.8
72	Cn1c(C(=O)N2CCN(c3ccc(Cl)cc3)CC2)cc2c(=O)[nH]c3ccccc3c21	.	.	.	3.9	-2.8

Some of these compounds in order of number of heavy atoms, descending:
entry	smiles	VCAM-1 up imaging	VCAM-1 down	VCAM-1 imaging	FPRL1 binder	FPR binder
61	COc1cc(C2CC(=O)N3CN(Cc4ccco4)CSC3=C2C#N)ccc1OCc1ccccc1 (configuration not stated)	.	.	.	0.6	3.9
62	O=S(=O)(NCc1csc(-c2cccnc2)n1)c1ccc2c(c1)OCCO2	.	.	.	3.3	0.1
63	CN1C(=O)c2oc3ccccc3c(=O)c2C1c1ccccn1 (configuration not stated)	i	i	i	-0.2	0.7
66	CCn1ccc(C(=O)Nc2ccc(N(C)C(C)=O)cc2)n1	.	.	.	-2.4	-9.3

(cont.)
entry	smiles	VCAM-1 up imaging	VCAM-1 down	VCAM-1 imaging	FPRL1 binder	FPR binder
73	CCCC(=O)Nc1ccccc1-c1nnc(SC)[nH]c1=O	.	.	.	-1.8	6.2
74	COc1ccc(CNc2oc(-c3cccc4ccccc34)nc2C#N)cc1	i	i	i	1.1	-7.7
75	CN(Cc1ccccc1)c1oc(COc2ccccc2F)nc1C#N	.	.	.	8.3	4.8
76	CCOC(=O)N1CCC(NC(=O)Cn2nc(-c3ccccc3)ccc2=O)CC1	.	.	.	-5.3	-2.4
77	CCOC(=O)C(C(C)=O)C(c1ccc(OC)cc1)C(C(C)=O)C(=O)OCC (configuration not stated)	.	.	.	2.5	-0.6
78	Cc1cccc(NC(=O)c2cc(NC(=O)C3CCCCC3C(=O)O)ccc2Cl)n1 (configuration not stated)	.	.	.	-1.1	-7.8
79	O=C(NCc1ccc2c(c1)OCO2)c1nnc(Cc2ccc(Cl)cc2)o1	.	.	.	0.1	2.0
80	CC1(C)S[C@@H]2[C@H](NC(=O)C(C(=O)O)c3ccccc3)C(=O)N2[C@H]1C(=O)O (some centres not stated)	i	i	i	7.7	9.3
81	O=C(CN1C(=O)C2C3C=CC(C3)C2C1=O)NC1CCCc2ccccc21 (configuration not stated)	.	.	.	20.2	17.4
82	CCCC1(C(=O)OCC)NC(c2ccc(N(C)C)cc2)C2C(=O)N(c3ccc(F)cc3)C(=O)C21 (configuration not stated)	i	i	i	-0.8	-2.8
83	CN(Cc1ccc(-n2cccn2)cc1)C(=O)c1cnn2c1NC(c1ccco1)CC2C(F)(F)F (configuration not stated)	i	i	i	1.2	-0.8
84	CCOC(=O)C1CCCN(C(=O)c2cc(=O)c3ccccc3o2)C1 (configuration not stated)	i	i	i	-4.0	6.5
85	COC(=O)c1ccccc1NC(=O)CN1C(=O)C2CCCN2c2ncc(Cl)cc21 (configuration not stated)	.	.	.	-12.0	2.3
86	Cn1c(=O)c2c(-c3ccncc3)c3c(nc2n(C)c1=O)-c1ccccc1C3=O	i	i	i	12.6	9.7
87	Cc1cccc(OCC(=O)Nc2ccccc2N2CCN(C(=O)C(C)C)CC2)c1C	i	i	i	-6.9	0.3
88	O=C(NCCN1CCOCC1)c1ccc2c(c1)N(Cc1ccccc1)CCS2	.	.	.	4.1	5.8
89	Cc1nc(S(=O)(=O)N(C)Cc2ccccc2)c(C#N)c(C)c1Cl	.	.	.	9.6	5.6
